AF4-AF9 inh: MLL-AF4/AF9 protein interaction inhibition. P42568. AlphaScreen, biotin-AF4 peptide binding to FLAG-AF9. inhibition, % at 10 µM. 350,000 tested, 0.47% active. AID 651704;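 active = every replicate reaching a set inhibition limit, whatever the replicate mean, cut at about 25% in these data; inconclusive = mean inhibition reaches that limit but some replicates miss it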;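 note: 0% = plate neutral control median and 100% = total signal loss; the record names both 10 and 1 µM as test concentration; the first replicate is given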
Calb FLC: affects C. albicans growth with fluconazole | 300,000 tested, 0.57% active | growth inhibition, % (concentration not given with the values) | C. albicans CaCi-2 (fluconazole-resistant clinical isolate) + fluconazole, Alamar Blue growth, 48 h;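 active = most replicates above 75%; inconclusive = exactly half above 75%; inactive = most below 75%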;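 note: all wells also contain fluconazole at 8 µg/ml as a sub-toxic cotreatment; 0% = median of DMSO wells and 100% = median of geldanamycin control wells; wells of about 8 µL received 7.5 nL stock; the first replicate is given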
T cruzi repl: blocks replication of Trypanosoma cruzi; T. cruzi beta-gal in NIH3T3, luminescence, 90 h; 300,000 tested, 1.4% active; inhibition, % (concentration not given with the values);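 active = mean inhibition across valid replicates above about 55%, limit read from the data; inconclusive = mean below that limit but half or more replicates reach it; inactive = mean below it, under half of replicates reach it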;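 note: signal also drops with host cell toxicity which is not excluded here; 0% = plate median of DMSO wells and 100% = zero luminescence signal; higher percent means less beta-gal luminescence so fewer parasites; stock transfer was 50 nL into about 50 µL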
RanGTP-Imp inh: disruptors of Ran-importin-beta complex formation – biochemical, FRET, CFP-Ran, YFP-importin-beta, homogeneous, primary screen | cell-free CFP-Ran/YFP-importin-beta FRET ratio | inhibition, % (no concentration beside the values) | 300,000 tested, 1.1% active | AID 2216;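 active = most replicates above 15%; inconclusive = exactly half above 15%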;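 note: 0% = DMSO wells and 100% = Ran loaded with GDP instead of GTP; wells of about 40 µL received 100 nL stock; the first replicate is given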
Beta apoptosis: blocks beta cell apoptosis. INS-1E cytokine-induced death, ATP luminescence, 48 h; percent of positive-control rescue, neutral wells zero. protection from apoptosis, % (test concentration not listed). 300,000 tested, 0.8% active;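 active = all replicates at 75% or more, or half of them and the mean; inconclusive = half reach 75% but not the mean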;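 note: 0% = cytokine-treated negative control wells and 100% = positive control rescue; higher means more ATP so stronger rescue from cytokine killing; wells of about 40 µL received 100 nL stock; the first replicate is given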
Vif A3G: inhibitors of Vif binding to APOBEC3G peptide, primary screen, biochemical, TR-FRET, GST-Vif 1-94, biotin-A3G peptide, dose response retest (AID 1117319). TR-FRET GST-Vif / biotin-A3G peptide binding; higher % means a stronger effect; test concentration not given here; strong numbers were not always called active. one-dose inhibition, %; IC50 in µM for titrated hits. 260,000 tested, 0.57% active;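 active = above the screen mean plus three standard deviations and confirmed in dose response; inconclusive = results disagree or hit not tested in dose response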;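 note: Vif residues 1-94 fused to GST binding biotinylated APOBEC3G peptide 110-148; 0% = full assay without inhibitor and 100% = GST in place of GST-Vif; retest series ran down from 100 µM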
Bfl-1 A1 inh: inhibitors of the anti-apoptotic protein A1, read as caspase activation; MEF A1-2A-BIM cells, Caspase-Glo 3/7 luminescence, 3 h; percent of clofoctol response, vehicle zero; caspase activation, % (test concentration not listed); 330,000 tested, 0.066% active;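 active = over half of replicate activation scores above 10%, or exactly half above 10 with the replicate mean above 10; inconclusive = replicate mean below 10 yet half the replicates above 10; inactive = over half of replicates below 10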;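 note: wells of about 30 µL received 50 nL stock; many hits fall short of the cut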
LANA-H2B inh: blocks KSHV LANA binding to histone H2A/H2B | AID 2629 | cell-free LANA-H2A/H2B peptide, fluorescence polarization | Q9QR71 | inhibition, % (concentration not given with the values) | 320,000 tested, 0.6% active; in the data active = inhibition mostly above about 10%, no sharp cut-off; inactive = mostly below about 6.7%;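 note: stock transfer was 7.5 nL into about 10 µL; 0% = median of vehicle wells and 100% = median of positive control wells; one replicate is shown; the record names a cut of 25% in any replicate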
Target sequence (Q9QR71 whole entry, looked up): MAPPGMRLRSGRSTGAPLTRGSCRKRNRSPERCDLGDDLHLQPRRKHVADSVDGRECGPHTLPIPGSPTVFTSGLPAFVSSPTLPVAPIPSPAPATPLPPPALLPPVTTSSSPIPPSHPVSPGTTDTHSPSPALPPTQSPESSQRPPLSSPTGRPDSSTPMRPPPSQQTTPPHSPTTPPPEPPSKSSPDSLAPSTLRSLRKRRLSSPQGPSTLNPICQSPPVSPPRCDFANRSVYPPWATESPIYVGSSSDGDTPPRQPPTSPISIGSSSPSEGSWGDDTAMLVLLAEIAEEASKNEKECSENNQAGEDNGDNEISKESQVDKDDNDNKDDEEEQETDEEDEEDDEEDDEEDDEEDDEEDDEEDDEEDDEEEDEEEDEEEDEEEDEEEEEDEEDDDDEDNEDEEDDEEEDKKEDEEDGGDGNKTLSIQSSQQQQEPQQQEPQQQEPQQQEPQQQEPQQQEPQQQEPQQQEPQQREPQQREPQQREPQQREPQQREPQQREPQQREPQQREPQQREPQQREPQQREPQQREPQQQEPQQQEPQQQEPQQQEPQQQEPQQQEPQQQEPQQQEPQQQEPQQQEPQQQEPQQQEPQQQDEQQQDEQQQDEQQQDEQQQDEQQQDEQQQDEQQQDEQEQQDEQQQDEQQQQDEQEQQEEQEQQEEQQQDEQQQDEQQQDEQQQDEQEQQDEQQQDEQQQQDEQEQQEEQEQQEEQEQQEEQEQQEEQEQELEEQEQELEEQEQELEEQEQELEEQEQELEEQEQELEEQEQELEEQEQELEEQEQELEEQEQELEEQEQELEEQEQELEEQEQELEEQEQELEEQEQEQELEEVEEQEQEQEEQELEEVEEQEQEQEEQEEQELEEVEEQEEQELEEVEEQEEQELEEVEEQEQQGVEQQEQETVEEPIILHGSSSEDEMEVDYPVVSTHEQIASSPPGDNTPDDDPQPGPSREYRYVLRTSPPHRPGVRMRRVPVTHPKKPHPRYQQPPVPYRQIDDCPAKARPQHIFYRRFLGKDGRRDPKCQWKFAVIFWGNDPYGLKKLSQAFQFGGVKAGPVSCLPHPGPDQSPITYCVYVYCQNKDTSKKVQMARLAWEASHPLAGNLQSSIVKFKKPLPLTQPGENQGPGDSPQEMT
The depositor's hits bear a star; ? = inconclusive; · = no result given.

#	canonical_smiles	AF4-AF9 inh	Calb FLC	T cruzi repl	RanGTP-Imp inh	Beta apoptosis	Vif A3G	Bfl-1 A1 inh	LANA-H2B inh
1	CCOC(=O)/C=c1\s/c(=C\c2ccc3cc(OC)ccc3c2)c(=O)n1CC(=O)NCc1ccc2c(c1)OCO2	0.2	10.5	-19.4	3.8	-1.4	-10.6%	-1.2	-1.4
2	C=CCc1cccc(/C=N/NC(=O)COc2ccc(-n3cnnn3)cc2)c1O	0.6	0.3	-11.7	?	9.8	-9.0%	-0.1	5.1
3	COc1ccc2cc(S(=O)(=O)N3CCCC(C)C3)ccc2c1 (stereo not given)	-7.7	-4.8	17.6	-1.5	5.5	·	-0.4	-1.1
4	CN(C)C(C)(C)C#CCCCCC#CC(C)(C)N(C)C	·	·	·	·	-0.2	-4.4%	-0.3	-1.1
5	CN1CCN(C(=O)c2ccccc2NC(=O)Cc2ccccc2)CC1	·	4.3	-32.3	1.9	-8.1	7.9%	-1.0	-1.0
6	COc1cccc(N2CCN(C(=O)c3ccc(CS(=O)c4ccccc4Cl)o3)CC2)c1 (stereo not given)	7.6	4.5	19.7	-0.6	20.9	·	0.6	-9.1
7	CCc1ccc(NC(=O)C(=O)NCCN2CCN(Cc3ccc([N+](=O)[O-])cc3)CC2)cc1	-3.5	-0.5	9.0	-1.4	2.2	4.0%	0.5	-5.4
8	O=C(/C=C/c1ccccc1Cl)NCc1cccs1	·	0.2	4.9	-5.3	3.6	·	-0.6	1.0
9	CC(C(=O)NCc1ccco1)n1cc([N+](=O)[O-])cn1 (stereo not given)	-2.0	-0.3	1.4	-0.2	6.0	-5.5%	2.4	1.2
10	Cc1ccc(N/N=C/c2c(O)cc(C)oc2=O)cc1	·	-14.0	12.1	2.1	-2.6	0.3%	-2.0	4.6
11	COc1ccc2cc3cc(C(=O)NC4CC4)sc3nc2c1	3.5	4.6	-9.8	0.9	7.0	·	-7.9	2.2
12	O=C(O)C1(NS(=O)(=O)c2ccc(F)c(Cl)c2)CCCCC1	·	13.6	-1.3	-2.2	-10.3	2.3%	0.0	1.0
13	CC1CCCCN1C(=O)CCn1c(=O)oc2ccccc21 (stereo not given)	0.5	1.3	6.2	2.8	-0.8	1.1%	-0.6	1.0
14	COc1ccc(-c2cc(-c3ccccc3)c(C#N)c(S(C)=O)n2)cc1 (stereo not given)	·	10.6	-24.8	1.6	-6.0	66.7%	0.5	0.8
15	CCc1ccc(CN2CCCC(C(=O)Nc3ccc(-c4cscn4)cc3)C2)o1 (stereo not given)	4.3	-10.3	6.9	2.8	1.0	·	-0.8	-6.6
16	Cc1cc(/C=N/NS(=O)(=O)c2ccc(F)c(Cl)c2)no1	-0.8	7.3	-3.7	4.7	-16.8	-15.3%	-0.2	-7.0
17	COCCCC1CCN(C(=O)C2CCC(=O)N(CCc3cccc(F)c3)C2)CC1 (stereo not given)	-1.3	-0.7	30.4	0.3	-4.0	·	-1.3	-3.9
18	CCc1cc2c(NCCC(=O)O)nc(C)nc2s1	·	25.5	-6.8	1.1	-16.7	4.5%	0.1	-1.5
19	CCOC(=O)C1CCCN(C(=O)Cn2cnc3c2c(=O)n(C)c(=O)n3C)C1 (stereo not given)	·	-5.2	6.3	-4.5	1.7	20.5%	-0.9	-4.0
20	CCOC(=O)c1c(-c2ccccc2)csc1NC(=O)CCN1CCOCC1	·	31.7	-6.6	4.3	23.5	·	0.2	1.7
21	CC(=O)Nc1ccc2nc(SCC(=O)NCCOc3ccccc3)sc2c1	0.9	-11.1	-18.3	7.7	-1.0	2.2%	0.3	-0.2
22	Cc1ccc(C(=O)N2CCN3C(=O)c4ccccc4C23c2ccccc2)cc1 (stereo not given)	2.2	-38.3	6.2	-3.1	0.0	·	0.1	1.8
23	CCOC(=O)[C@H]1[C@H]2COc3ccc(C)cc3[C@@H]2N2C(=O)c3ccc(Cl)cc3NC(=O)[C@@]12C	3.3	·	·	·	-0.9	·	-0.1	-5.3
24	NS(=O)(=O)c1cccc(NC(=O)COC(=O)C2CCN(S(=O)(=O)c3cccs3)CC2)c1	-8.8	7.0	7.7	3.7	-0.3	·	0.9	0.3
25	C=CCn1c(SCC(=O)N2CCN(c3ccc(F)cc3)CC2)nnc1-c1ccco1	-3.4	3.5	0.9	6.7	7.1	3.5%	-0.2	0.8
26	CCNS(=O)(=O)c1ccc(NC(=O)Nc2ccccc2OC)cc1	0.4	-16.8	-6.6	?	-2.6	·	-4.8	1.5
27	COc1ccccc1N1CCN(CCCCOc2ccc(C)cc2C)CC1	14.5	-37.4	36.1	?	1.9	·	0.3	-1.7
28	CSCC[C@H](NC(=O)c1cccc(S(=O)(=O)N2CCCCC2)c1)c1nc2ccccc2[nH]1	3.6	·	·	·	3.4	-2.4%	-0.7	1.0
29	CC(=O)NC(Cc1ccccc1F)C(=O)NC1CCN(S(=O)(=O)c2ccccc2)CC1 (stereo not given)	-1.9	-6.6	-9.7	0.1	·	-6.3%	·	·
30	COc1ccc(-c2c(C)c3ccc(O)cc3oc2=O)cc1	-6.5	6.4	-9.0	18.7*	7.5	·	1.5	5.3
31	c1cnc2ccc(C(c3nnnn3C3CCCC3)N3CCSCC3)cc2c1 (stereo not given)	·	0.9	1.9	0.1	2.7	2.4%	0.2	-3.4
32	COc1ccccc1-c1nc(C#N)c(N2CCN(c3ccccc3)CC2)o1	·	7.6	-1.0	1.5	-6.2	2.4%	-0.1	-0.6
33	CCOC(=O)c1[nH]n(-c2ccc(Cl)cc2)c(=O)c1C	·	-1.4	-0.1	0.0	-26.5	5.9%	1.7	-5.8
34	COc1cc(/C=N/NC(=O)CCn2c3ccccc3c3ccccc32)cc(OC)c1OC	0.3	-0.9	25.0	-1.9	-8.6	·	-0.5	1.9
35	CCOCCCNC(=S)Nc1ccc2nc3n(c(=O)c2c1)CCCCC3	-0.7	-6.1	-6.3	?	-4.0	11.0%	0.3	1.6
36	COc1ccc(NC(=S)NCCc2ccccc2)c(C)c1	0.6	5.9	-19.5	-1.8	-4.5	0.2%	-0.3	-1.6
37	CC(=O)C1=C(O)C(=O)N(CCc2c[nH]c3ccccc23)C1c1ccco1 (stereo not given)	·	-8.0	-43.3	1.1	0.1	?	0.5	-3.8
38	COc1ccc(NC(=O)CCn2cccc2)c(OC)c1	1.3	3.5	-9.1	·	-7.0	·	-0.3	-3.3
39	CC(C)(C)OC(=O)C[C@@H]1C/C=C\C[C@@H](CC(=O)N(CCO)Cc2ccccc2)C(=O)N[C@@H](c2ccccc2)COC1=O	-9.9	·	·	·	4.7	·	0.1	8.0
40	COc1ccc(S(=O)(=O)N2CCCCCC2)cc1C(=O)OCc1cccc(OC)c1OC	-12.3	-9.7	15.5	1.3	·	-2.5%	-0.5	-6.8
41	O=C(COc1ccc(F)cc1Cl)NC1CCCCCC1	0.0	·	·	·	3.7	-2.9%	-0.6	-4.4
42	COc1cccc(-c2nn(-c3ccccc3)cc2C(=O)OCC(=O)Nc2ncc(Cl)cc2Cl)c1	·	10.6	0.3	-1.4	-4.0	·	1.4	-7.3
43	NS(=O)(=O)c1ccc(CCNC(=O)COC(=O)C2CCN(c3ccc(C(F)(F)F)cn3)CC2)cc1	-0.1	3.4	13.3	·	-0.6	3.1%	0.2	7.3
44	O=S(=O)(c1ccc(NCCOc2ccccc2)nc1)N1CCCC1	-0.8	·	·	·	8.0	2.4%	-1.1	-0.7
45	COc1cc(CN2CCSCC2)c([N+](=O)[O-])cc1OC	-6.5	17.7	-2.3	1.8	-12.0	·	0.1	6.4
46	COCCCN1C(=O)c2ccc(C(=O)Nc3ccccc3Cl)cc2C1=O	-3.1	3.2	-0.2	-0.3	-1.4	-6.2%	-0.9	-1.2
47	CCOc1ccc(NC(=S)NC(C)CCc2ccccc2)cc1 (stereo not given)	4.0	-0.8	32.6	?	-4.2	19.7%	0.2	1.9
48	CC(C)(C)N(NC(=O)Nc1ccc(F)cc1)C(=O)c1ccccc1	·	-20.9	-1.3	-5.4	·	2.5%	0.1	5.0
49	O=C(c1ccc(Cl)cc1)N1N=C(c2ccccn2)CC1(O)C(F)(F)F (stereo not given)	-3.4	-11.5	28.2	7.1	31.5	-5.5%	-0.1	-4.0
50	CCN(CC)C(=O)Oc1ccnc2cc(Cl)ccc12	3.4	7.5	5.0	0.0	-20.0	-7.1%	-0.3	-6.3
51	O=C(NC(Cc1c[nH]c2ccccc12)C(=O)N/N=C/c1cccnc1)c1cccs1 (stereo not given)	2.4	-4.0	-9.7	-0.6	-6.7	2.1%	-0.9	1.5
52	O=S(=O)(Nc1ccc2c(c1)OCO2)c1cccs1	·	-9.2	-61.0	2.1	-0.7	-0.9%	0.6	-0.1

Filtered by structure, the entries above containing fluorine.
#	canonical_smiles	AF4-AF9 inh	Calb FLC	T cruzi repl	RanGTP-Imp inh	Beta apoptosis	Vif A3G	Bfl-1 A1 inh	LANA-H2B inh
12	O=C(O)C1(NS(=O)(=O)c2ccc(F)c(Cl)c2)CCCCC1	·	13.6	-1.3	-2.2	-10.3	2.3%	0.0	1.0
16	Cc1cc(/C=N/NS(=O)(=O)c2ccc(F)c(Cl)c2)no1	-0.8	7.3	-3.7	4.7	-16.8	-15.3%	-0.2	-7.0
17	COCCCC1CCN(C(=O)C2CCC(=O)N(CCc3cccc(F)c3)C2)CC1 (stereo not given)	-1.3	-0.7	30.4	0.3	-4.0	·	-1.3	-3.9
25	C=CCn1c(SCC(=O)N2CCN(c3ccc(F)cc3)CC2)nnc1-c1ccco1	-3.4	3.5	0.9	6.7	7.1	3.5%	-0.2	0.8
29	CC(=O)NC(Cc1ccccc1F)C(=O)NC1CCN(S(=O)(=O)c2ccccc2)CC1 (stereo not given)	-1.9	-6.6	-9.7	0.1	·	-6.3%	·	·
41	O=C(COc1ccc(F)cc1Cl)NC1CCCCCC1	0.0	·	·	·	3.7	-2.9%	-0.6	-4.4
43	NS(=O)(=O)c1ccc(CCNC(=O)COC(=O)C2CCN(c3ccc(C(F)(F)F)cn3)CC2)cc1	-0.1	3.4	13.3	·	-0.6	3.1%	0.2	7.3
48	CC(C)(C)N(NC(=O)Nc1ccc(F)cc1)C(=O)c1ccccc1	·	-20.9	-1.3	-5.4	·	2.5%	0.1	5.0
49	O=C(c1ccc(Cl)cc1)N1N=C(c2ccccn2)CC1(O)C(F)(F)F (stereo not given)	-3.4	-11.5	28.2	7.1	31.5	-5.5%	-0.1	-4.0

Assay outcomes from PubChem.
